Screens: PubChem BioAssay, National Center for Advancing Translational Sciences (NCATS)
TRPV1 PAM: HTS Assay for Compounds that Act as Potentiators of the Vanilloid Receptor 1; hit rate 0.02% among 320,000; TRPV1-expressing cells, Fluo-8 calcium influx, capsaicin EC20 potentiation; host cell line not named in the record; control for the full effect not named in the record; Transient receptor potential cation channel subfamily V member 1 (Homo sapiens), Q8NER1; potentiation, % at 8.33 µM; active means potentiation above 80%; inconclusive means 30% to 80%; inactive means below 30%; further: 0% is about no effect
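Cells expressing TRPV1 were dye-loaded with Fluo-8 and read kinetically: 10 s baseline, 3 min after compound (agonist portion), then 2 min after EC20 capsaicin (allosteric enhancer portion). Calcium-bound dye fluorescence at 480/520 nm.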
D2 agonist: Beta-Arrestin HTS for Positive Allosteric Modulators of the Human D2 Dopamine Receptor: Agonists; hit rate 0.084% among 360,000; D(2) dopamine receptor (Homo sapiens), P14416; DiscoveRx PathHunter D2 beta-arrestin, luminescence, 90 min; 100% = 57 uM dopamine signal; activation, % (no concentration beside the values); AID 624465, 2012; in the data active = activation above about 40%; inconclusive = about 15% to 40%; inactive = below about 15%; further: compound concentration not given in the record; the text of the record calls up to 30% inactive
Target sequence (P14416 whole entry, looked up): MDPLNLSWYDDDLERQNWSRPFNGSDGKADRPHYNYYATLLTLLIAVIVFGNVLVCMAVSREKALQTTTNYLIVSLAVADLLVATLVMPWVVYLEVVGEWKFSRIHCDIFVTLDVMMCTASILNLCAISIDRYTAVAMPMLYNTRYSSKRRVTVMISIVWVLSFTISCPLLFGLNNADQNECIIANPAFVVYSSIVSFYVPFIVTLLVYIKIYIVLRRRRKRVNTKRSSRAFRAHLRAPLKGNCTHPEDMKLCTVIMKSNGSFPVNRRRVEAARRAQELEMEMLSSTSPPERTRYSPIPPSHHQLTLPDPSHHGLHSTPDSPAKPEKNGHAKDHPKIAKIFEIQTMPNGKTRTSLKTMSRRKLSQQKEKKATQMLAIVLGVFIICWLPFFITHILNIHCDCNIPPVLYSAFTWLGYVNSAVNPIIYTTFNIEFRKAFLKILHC
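Agonist mode: compounds alone added to overnight-plated D2 PathHunter cells for 90 min at 37 C, with 57 uM final dopamine (EC100) defining full response. Beta-arrestin recruitment detected by chemiluminescent reagent, read after 1 h at ambient temperature.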
Six1-Eya2 inh: qHTS Assay for Inhibitors of the Six1/Eya2 Interaction. activity change, % (test concentration not listed). hit rate 0.56% among 360,000. AlphaScreen GST-Six1/His-Eya2 binding, biochemical; active compounds read low; control for the full effect not named in the record. Homeobox protein SIX1 (Homo sapiens) + Protein phosphatase EYA2 (Homo sapiens), …; in the data active = activity change below about -65%; inconclusive = about -30% to -65%; inactive = above about -30%; further: on the % scale 0 is the no-effect control and ±100 the full control effect
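Homogeneous AlphaScreen proximity assay pairing GST-Six1 with His-tagged Eya2 (added as 5X mix: 250 nM and 500 nM) in 50 mM Tris pH 8.0, 300 mM NaCl, 1 mM TCEP. Glutathione donor and nickel acceptor beads; 1 h, 37 °C, dark.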
PINK1 expr mod: A Quantitative High throughput Screen to Identify Chemical Modulators of PINK1 Expression. PINK1 immunofluorescence, high-content cytometry, 24 h. Potency, µM (doses to about 76.6 µM), for the others: at the top dose activation (PINK1 increase), hits mostly activators. hit rate 0.2% among 410,000. AID 624263, 2012; active = well fitted activation curve with a large enough effect; inconclusive = small, poorly fitted or top-dose-only effect; inactive = flat fitted curve, though single readings scatter; cell line not stated here;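 further: potency means the concentration at half of the fitted maximal effect; % of control where 0% means no effect; nearly all actives have a fitted effect of over 65% in size; a mitochondrial uncoupler was the plate control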
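Decision-based qHTS: stable cells, 24 h exposure to five compound concentrations, CCCP as control. Fixed cells stained for PINK1 plus nuclear, mitochondrial and cell markers, cytometer read.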
CtBP-E1A blk: qHTS Assay for Inhibitors of the CtBP/E1A Interaction. CtBP / adenovirus E1A interaction (AlphaScreen). AlphaScreen GST-E1A/His-CtBP binding, 1536-well; active compounds read low; control for the full effect not named in the record. activity change, % (no concentration beside the values). hit rate 0.49% among 340,000. AID 651724, 2012; in the data active means activity change below about -65%; inconclusive means about -30% to -65%; inactive means above about -30%; further: on the % scale 0 is the no-effect control and ±100 the full control effect
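Protein mix (5X: 125 nM each GST-E1A, His-CtBP) was incubated with pinned compound 2 h at 37 deg C in dark, in 50 mM Tris pH 8.0 buffer with 300 mM NaCl. Glutathione donor and nickel acceptor beads followed; AlphaScreen signal read after 1 h.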
D2 PAM: Beta-Arrestin HTS for Positive Allosteric Modulators of the Human D2 Dopamine Receptor: Potentiators; DiscoveRx D2 beta-arrestin cells, luminescence, 90 min; 100% = 57 uM dopamine signal; potentiation, % (test concentration not listed); hit rate 0.23% among 360,000; active = potentiation of 50% or more; inconclusive = 30% to 50%; inactive = 30% or less;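 further: compound concentration not given in the record; tested on top of an EC20 dose of dopamine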
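D2 cells co-treated with compound plus 50 nM dopamine (EC20) for 90 min at 37 deg C to detect potentiation. Beta-arrestin recruitment was read as enzyme-fragment luminescence after 1 h at ambient temperature. Full response was set by 57 uM dopamine.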
Sfp PPTase inh: qHTS Assay for Inhibitors of Bacillus subtilis Sfp phosphopantetheinyl transferase (PPTase); 4'-phosphopantetheinyl transferase ffp (Bacillus subtilis), Q9F4F7; Biochemical Sfp PPTase activity, qHTS; Potency, µM, inactives show max response, negative = inhibition, hits mostly inhibitors; hit rate 3.5% among 310,000; AID 1490, 2009; active means well fitted inhibition curve with a large enough effect; inconclusive means small, poorly fitted or top-dose-only effect, or another doubt; inactive means no such curve, though single readings can be large or run the other way;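 further: the enzyme is Sfp with the accession as filed and its product quenches rhodamine fluorescence; potency means the concentration at half of the fitted maximal effect; 0% = enzyme reaction without inhibitor and -100% = no enzyme wells; top concentration of the series not given in the record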
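After 15 min at room temperature with compound, 15 nM Sfp received 5 uM rhodamine-CoA plus 12.5 uM BHQ-2-ybbR (50 mM Hepes pH 7.6, 10 mM MgCl2). Rate came from the fluorescence difference over 30 min, ex 525/em 598 nm.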
* marks the source's active call; other numbers are inactive results; ? = inconclusive; · = no result given; [ ] = remark or other dose.

SMILES	TRPV1 PAM	D2 agonist	Six1-Eya2 inh	PINK1 expr mod	CtBP-E1A blk	D2 PAM	Sfp PPTase inh
COc1ccc([C@H]2CC(=O)C=C(c3ccc4c(c3)OCO4)C2)cc1	-11	-1.1	0	2.2%	·	-10	·
COc1ccc(NC(C)C(=O)Nc2cc(C(F)(F)F)ccc2N2CCOCC2)c(OC)c1 (stereo unspecified)	3	0.0	-3	1.5%	·	-12	15%
COc1ccc(NC(=S)NC2CCCC2)c(OC)c1	-4	5.4	8	-0.5%	-9	-7	8%
CCOc1ccc(OCC)c(NC(=O)CCS(=O)(=O)c2ccc(C)cc2)c1	-21	-4.6	1	2.7%	·	-3	5%
CC(=O)/C(=N\Nc1cccc(Cl)c1)Sc1cccc2cccnc12	3	-3.4	-9	7.1%	-12	-4	15%
Cc1sc2ncnc(N3CCC(C(=O)Nc4ccc(Cl)cc4Cl)CC3)c2c1C	11	-5.1	-8	-1.4%	2	-39	·
C/C(=N\NC(=O)c1cccc([N+](=O)[O-])c1)c1ccco1	-8	1.5	-2	-1.1%	-8	-2	14%
CCOC(=O)c1c(NC(=O)c2cccs2)sc(C(=O)N(C)C)c1C	-5	-1.0	1	-0.6%	-7	-13	?
COCCCNC(=O)Cn1cnc2sc(C)c(S(=O)(=O)N3CC(C)CC(C)C3)c2c1=O (stereo unspecified)	-3	-8.4	4	4.8%	-3	-10	26%
O=C1NC(=O)C2C3OC(C(Br)C3Br)C12 (stereo unspecified)	·	-1.9	10	1.3%	0	-7	·
Cc1ccc(N2CC(C)Cn3c2nc2c3c(=O)[nH]c(=O)n2C)cc1C (stereo unspecified)	20	-0.5	8	-0.7%	-2	-4	4%
CC(O)(c1ccc(F)c(F)c1)c1nc(-c2ccc3ccccc3c2)cs1 (stereo unspecified)	·	6.9	-2	15%	0	-4	·
CCCCCn1c(CNC(C)=O)nc2ccccc21	-14	0.2	0	-2.0%	-7	-16	14%
CCN(CCCn1c(SCC#N)nc2ccccc2c1=O)c1ccccc1	20	1.0	-25	0.0%	-19	29	7%
O=C(Nc1cc(Cl)ccc1O)C1CC(c2ccccc2O)=NO1 (stereo unspecified)	10	5.4	-4	12%	-4	0	16%
Cc1ccccc1NC(=S)N/N=C/c1ccc(O)cc1O	1	-6.1	-89*	4.8%	-97*	-9	-5%
Cc1cc(NS(=O)(=O)c2ccc(NC(=S)NC(=O)c3ccncc3)cc2)no1	11	-5.8	1	-0.9%	-1	-7	2%
Clc1nc(CN2CCOCC2)nc2sc3c(c12)CCC3	-6	4.6	-6	0.5%	0	4	3%
CC1CCc2c(sc(NC(=O)C3CCCO3)c2C#N)C1 (stereo unspecified)	0	-4.1	5	0.5%	-17	-30	7%
O=C(CN1C(=O)C2CC=CCC2C1=O)Nc1ccc(Br)cc1 (stereo unspecified)	5	-3.4	0	2.8%	5	-9	17%

A portion of the results above, for reference:
SMILES	TRPV1 PAM	D2 agonist	Six1-Eya2 inh	PINK1 expr mod	CtBP-E1A blk	D2 PAM	Sfp PPTase inh
CCN(CCCn1c(SCC#N)nc2ccccc2c1=O)c1ccccc1	20	1.0	-25	0.0%	-19	29	7%
O=C(Nc1cc(Cl)ccc1O)C1CC(c2ccccc2O)=NO1 (stereo unspecified)	10	5.4	-4	12%	-4	0	16%
Cc1ccccc1NC(=S)N/N=C/c1ccc(O)cc1O	1	-6.1	-89*	4.8%	-97*	-9	-5%
Cc1cc(NS(=O)(=O)c2ccc(NC(=S)NC(=O)c3ccncc3)cc2)no1	11	-5.8	1	-0.9%	-1	-7	2%
Clc1nc(CN2CCOCC2)nc2sc3c(c12)CCC3	-6	4.6	-6	0.5%	0	4	3%

The list continues.
SMILES	TRPV1 PAM	D2 agonist	Six1-Eya2 inh	PINK1 expr mod	CtBP-E1A blk	D2 PAM	Sfp PPTase inh
Cc1nc(C)c(-c2ccccc2)c(=O)[nH]1	12	-3.6	-3	4.1%	0	-4	12%
CCOC(=O)CC1=CCc2c1ccc(OC)c2OC	·	-4.3	6	-2.3%	7	-13	·
COc1ccc(C(C)(O)c2nc(-c3cccc(C(=O)O)c3)cs2)cc1 (stereo unspecified)	·	2.2	0	-0.1%	6	0	·
COc1cccc(C(=O)N2CCN(c3ccc(N4CCOCC4)nn3)CC2)c1	25	-6.7	-2	1.9%	-2	-32	·
COc1cc(C2C(C(=O)OC(C)C)=C(C)Nc3[nH]c(=O)[nH]c(=O)c32)ccc1O (stereo unspecified)	4	1.5	16	11%[38.3 µM]	-2	17	7%
C[C@@H]1COC(=O)[C@@H](Cc2ccc(F)cc2)C/C=C\C[C@@H](CC(=O)N[C@H](CO)Cc2ccccc2)C(=O)N1	·	-4.2	-1	-0.2%	1	4	·
CC1CCCC(C)N1C(=O)c1cc(-c2cccs2)on1 (stereo unspecified)	-8	1.2	4	0.1%[38.3 µM]	-4	-5	7%
O=C(NCc1nnc(SCC(=O)N2CCCc3ccccc32)o1)c1ccco1	7	-1.7	-2	0.1%	-3	-1	15%
Cc1ccc(NC2=NC3(CCCCC3)N=C(N)N2)c(C)c1	1	-2.9	-11	8.6%[38.3 µM]	-7	-17	6%
O=C(C1CCC1)N1CCc2cc(S(=O)(=O)NC3CCCC3)ccc21	10	-1.8	4	2.0%	1	3	-2%
COc1ccc(OC)c(S(=O)(=O)NC2CC(=O)N(c3ccc(C)c(C)c3)C2)c1 (stereo unspecified)	-3	0.8	2	0.9%	9	4	·
CC1(C)CC(=O)c2sc(NS(=O)(=O)c3ccc([N+](=O)[O-])cc3)nc2C1	5	-1.1	-1	2.0%	-2	54*	-2%
O=C(O)CNc1nc(-c2ccccc2)nc2c1oc1ccccc12	-6	-5.7	-2	-1.2%	-3	-10	29%
COC(=O)C1=C(C(=O)OC)[C@@H]2Nc3ccccc3[C@@]23C[C@@H](C(=O)OC)N(C(=O)CC(C)C)C3=N1	·	-1.8	-4	0.0%	-3	-4	7%
CC(=O)Nc1ccc(CN(C)c2c(C)nc3ccc(C(=O)N4CCN(c5ccccc5)CC4)cn23)cc1	·	2.9	-6	0.6%	0	7	·
COc1ccc(C)cc1NC(=O)C1CCN(C(=O)C2CC(=O)N(c3ccc(C)cc3)C2)CC1 (stereo unspecified)	6	3.4	2	3.7%	3	-8	3%
N=C1/C(=C/c2cccn2Cc2ccc(F)cc2)C(=O)N=C2SC=CN12	-8	-1.7	-2	4.5%	13	10	-5%
CC(C)CN1CCNC(=O)C1CC(=O)NCc1cnn(-c2cccc(F)c2)c1 (stereo unspecified)	0	-2.9	-6	0.9%	-9	-5	4%
O=C(Nc1ccccc1C(F)(F)F)c1cnccn1	0	-0.3	0	-0.3%	0	-12	1%
O=C(C1=NN[C@@H]2C(=O)N(c3cccc(F)c3)C(=O)[C@H]12)c1cnccn1	9	-1.7	-3	-1.2%	-13	-10	?
COc1ccc(CCNC(=O)COc2cc(C)cc3oc(=O)cc(C)c23)cc1	2	2.8	0	4.3%	·	-7	5%
CC1(c2ccccc2)NC(=O)N(CC(=O)NNC(=O)c2ccccc2)C1=O (stereo unspecified)	-39	-3.0	2	-0.3%	1	-5	9%
Cc1ccc(C)c2[nH]c(=O)c(CN(Cc3ccco3)S(=O)(=O)c3ccc4c(c3)OCCO4)cc12	-7	-1.8	-8	?	-7	-8	6%
CC1(C)Cc2c(cnn2-c2ccccc2)C(NC(=O)CCN2CCCCO2)C1 (stereo unspecified)	-17	-3.9	8	0.2%	4	17	11%
O=C(O)c1ccc(-c2ccccn2)s1	8	1.1	9	-0.8%	-1	1	17%
COc1ccc(C(=O)NC(C)c2nnc(SCc3ccc(Cl)c(Cl)c3)n2C)cc1 (stereo unspecified)	-4	-1.0	-3	-0.3%[38.3 µM]	-7	-9	-9%
Nn1c(SCCOc2ccccc2)nnc1-c1cccnc1	-1	-4.1	5	1.1%	7	-2	2%
O=C(/C=C/c1ccc2c(c1)OCCO2)c1ccccc1	-1	-3.3	2	3.4%	·	1	-20%
CCOC(=O)C1CCCCN1Cc1cccc(F)c1 (stereo unspecified)	-15	2.5	7	·	12	0	-28%
N#Cc1cnn(-c2nc3sc4c(c3c(=O)[nH]2)CCCC4)c1N	9	-2.0	1	-0.5%	-6	2	14%
Cc1ccnc(NC(=O)c2ccc(OCc3c(C)noc3C)cc2)c1	-16	-1.9	-2	1.1%	3	-6	·
CC(C)N(C(=O)Cn1c(-c2cccnc2)ccc(C#N)c1=O)C(C)C	-24	-1.0	1	4.9%	-1	-4	21%
CCCCC(O)(c1ccc(F)cc1)C(CN1CCOCC1)c1ccc(Cl)cc1 (stereo unspecified)	-18	0.0	0	?	3	-7	-4%
Cn1c(=O)[nH]c(=O)c2c1nc(Sc1ncccn1)n2CCCc1ccccc1	4	-3.5	11	-2.0%	2	-25	17%
COc1ccc([C@H]2N[C@]3(CCCN(Cc4ccc(Cl)cc4)C3=O)[C@H]3C(=O)N(Cc4ccccc4)C(=O)[C@@H]23)cc1	·	-2.6	-7	5.3%	7	-6	·
COc1ccc(Br)cc1/C=N/NC(=O)c1cccnc1	3	-2.5	9	5.2%	0	-8	18%
C[C@H]1CN=C(N(C)C)N1CCCC1CCCCC1	-1	0.1	6	-0.5%	5	-8	·
O=C(Cc1cccs1)NCC1CCCO1 (stereo unspecified)	1	-1.3	-5	·	10	-13	15%
CC1=C(C(=O)Nc2cccc(C(=O)NCc3ccc(F)cc3)c2)SCCO1	10	-7.4	-2	0.6%	-6	-10	15%
O=C(CN(C(=O)CNS(=O)(=O)c1ccc(F)cc1)c1ccccc1F)NCc1ccco1	4	-1.2	13	-0.1%	0	9	9%
Cc1ccc(OCc2cc(C(=O)N3CC4C[C@@H]5CC3C[C@H](C4)C5)no2)cc1C	0	-4.1	0	1.9%	2	0	-6%
